Six1-Eya2 inh: Six1/Eya2 interaction inhibition; AlphaScreen GST-Six1/His-Eya2 binding, biochemical; stronger effect = lower value; control for the full effect not named in the record; activity change, % (no concentration beside the values); hit rate 0.56% among 360,000; in the data active = activity change below about -65%; inconclusive = about -30% to -65%; inactive = above about -30%; note: % is set by controls: 0 for no effect and ±100 for the full control effect; compound concentration not given in the record
Target sequence (O00167 whole entry, looked up): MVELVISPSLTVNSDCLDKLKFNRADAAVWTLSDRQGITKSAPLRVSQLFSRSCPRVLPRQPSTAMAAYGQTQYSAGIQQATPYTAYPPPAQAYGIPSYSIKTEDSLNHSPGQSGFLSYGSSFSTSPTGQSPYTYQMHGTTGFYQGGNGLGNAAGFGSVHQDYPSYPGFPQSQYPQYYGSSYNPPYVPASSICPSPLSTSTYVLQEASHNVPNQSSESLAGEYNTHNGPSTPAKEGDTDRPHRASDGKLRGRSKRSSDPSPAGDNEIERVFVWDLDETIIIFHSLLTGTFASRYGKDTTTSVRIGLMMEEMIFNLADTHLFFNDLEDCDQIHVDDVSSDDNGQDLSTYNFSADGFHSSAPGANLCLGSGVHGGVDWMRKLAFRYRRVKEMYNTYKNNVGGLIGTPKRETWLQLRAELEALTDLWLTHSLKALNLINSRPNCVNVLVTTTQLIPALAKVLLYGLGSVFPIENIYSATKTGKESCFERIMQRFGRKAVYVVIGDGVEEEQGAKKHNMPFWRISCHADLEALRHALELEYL
Target sequence (Q15475 whole entry, looked up): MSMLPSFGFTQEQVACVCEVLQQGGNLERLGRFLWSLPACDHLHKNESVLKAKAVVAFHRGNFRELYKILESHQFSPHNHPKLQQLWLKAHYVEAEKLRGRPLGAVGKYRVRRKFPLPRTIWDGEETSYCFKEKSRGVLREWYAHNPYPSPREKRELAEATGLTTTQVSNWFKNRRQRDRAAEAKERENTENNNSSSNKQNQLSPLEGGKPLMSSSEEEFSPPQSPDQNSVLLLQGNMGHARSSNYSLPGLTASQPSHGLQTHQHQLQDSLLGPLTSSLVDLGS
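Six1/Eya2 binding was read as AlphaScreen signal after compounds were pinned into GST-Six1 plus His-tagged Eya2 (5X stock 250/500 nM) in pH 8.0 Tris/NaCl/TCEP buffer, beads added, then incubated 1 h, 37 C, dark.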
D2 ag: activates the human D2 dopamine receptor; activation, % (test concentration not listed); hit rate 0.084% among 360,000; DiscoveRx PathHunter D2 beta-arrestin, luminescence, 90 min; 100% = 57 uM dopamine signal; in the data active = activation above about 40%; inconclusive = about 15% to 40%; inactive = below about 15%; note: compound concentration not given in the record; the text of the record calls up to 30% inactive
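Agonist mode: compounds alone added to overnight-plated D2 PathHunter cells for 90 min at 37 C, with 57 uM final dopamine (EC100) defining full response. Beta-arrestin recruitment detected by chemiluminescent reagent, read after 1 h at ambient temperature.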
D2 PAM: potentiates the human D2 dopamine receptor allosterically; DiscoveRx D2 beta-arrestin cells, luminescence, 90 min; 100% = 57 uM dopamine signal; hit rate 0.23% among 360,000; potentiation, % (test concentration not listed); P14416; AID 624464; active = potentiation of 50% or more; inconclusive = 30% to 50%; inactive = 30% or less;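 note: compound concentration not given in the record; tested on top of an EC20 dose of dopamine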
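PathHunter D2 cells, attached overnight at 37 deg C, received compound in DMSO plus dopamine at EC20 (50 nM final) for 90 min at 37 deg C. Beta-arrestin recruitment was read as luminescence after 1 h with detection reagent at ambient temperature.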
TRPML1 agonist: human mucolipin-1 channel agonism; TRPML1-expressing cells, Ca2+ dye fluorescence, FDSS; host cell line not named in the record; reference of the full effect not given here; activation, % (test concentration not listed); hit rate 0.12% among 410,000; AID 624414; in the data active = activation above about 50%; inconclusive = about 30% to 50%; inactive = below about 30%; note: 0% is about no effect; the text of the record puts the active cut at 80%
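Agonist activity was taken from a 110 s kinetic Ca2+ dye read on the FDSS after pinning compounds onto TRPML1-DL cells. The cells were seeded at 1,500/well with Tet inducer, incubated about 16 h, then dye-loaded at room temperature.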
TRPML1 blocker: human mucolipin-1 channel inhibition; Q9GZU1; TRPML1-inducible cells, Ca2+ dye fluorescence, FDSS; stronger effect = lower value; inhibition of EC80 agonist-evoked calcium signal; activity change, negative = inhibition, % (concentration not given with the values); hit rate 0.02% among 390,000; in the data active means activity change below about -50%; inconclusive means about -30% to -50%; inactive means above about -30%;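 note: stimulus is agonist 54-4 at its EC80 concentration; % is set by controls: 0 for no effect and ±100 for the full control effect; compound concentration not given in the record; the text of the record puts the active cut at -80%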
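TRPML1-DL cells, Tet-induced overnight (~16 h, 37 °C) at 1,500 cells/well, were loaded with Ca8 no-wash dye plus quencher for 45-90 min at room temperature. Compounds were pinned during FDSS kinetic reading; agonist 54-4 at EC80 (4 uM final) then added.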
PINK1 modulator: changes PINK1 expression; PINK1 immunofluorescence, high-content cytometry, 24 h; Potency, µM (doses to about 76.6 µM), without a hit: top-dose activation (PINK1 increase), most hits filed as activators; hit rate 0.2% among 410,000; active = well fitted activation curve with a large enough effect; inconclusive = small, poorly fitted or top-dose-only effect; inactive = flat fitted curve, though single readings scatter; cell line not stated here;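 note: potency is the fitted concentration of half-maximal effect; % of control where 0% means no effect; nearly all actives have a fitted effect of over 65% in size; a mitochondrial uncoupler was the plate control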
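PINK1 protein level read as immunofluorescence by microplate cytometer in a fixed, stained stable cell line after 24 h exposure to five compound concentrations, with CCCP as control.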
* = called active by the depositor; & = joins results of further samples; [ ] = dose if it differs, or a comment.

For COc1ccc(-c2nnc3n2-c2ccccc2SC3)cc1OC the results were Six1-Eya2 inh -6, D2 ag -4.4, D2 PAM -5, TRPML1 agonist 0.1, TRPML1 blocker 8 and PINK1 modulator -0.5%.
Screening O=c1/c(=C/c2ccc(CNS(=O)(=O)c3ccccc3)o2)sc2n1CCN=2 returned Six1-Eya2 inh -74*, D2 ag -0.7, D2 PAM -3, TRPML1 agonist 0.1 and TRPML1 blocker 13.
C=CCSc1nc2ccccc2n1Cc1nnc(-c2cccs2)o1 was read as Six1-Eya2 inh 2, D2 ag 0.7, D2 PAM 2, TRPML1 agonist -0.9, TRPML1 blocker 7 and PINK1 modulator -3.2%.
NC(=O)CC[C@H](NC(=O)c1ccc(Cl)cc1)C(=O)NNC(=O)COc1cccc(Br)c1 was read as Six1-Eya2 inh -7, D2 ag 1.6, D2 PAM -1, TRPML1 agonist -0.3, TRPML1 blocker 35 and PINK1 modulator -1.0%.
COc1ccc(Cl)cc1NC(=S)NCCc1ccc(S(N)(=O)=O)cc1 was read as Six1-Eya2 inh -1, D2 ag -4.1, D2 PAM -16, TRPML1 agonist 1.0, TRPML1 blocker 2 and PINK1 modulator 1.0%.
For Cc1noc(C)c1S(=O)(=O)NCC(=O)O the results were Six1-Eya2 inh 3, D2 ag -4.6, D2 PAM 1, TRPML1 agonist 0.0, TRPML1 blocker 20 and PINK1 modulator -3.8%.
For CNC(=O)N(O)C1N(/N=C/c2ccccc2F)C(=S)SC1(C)C (configuration not stated) the results were Six1-Eya2 inh -15, D2 ag -4.3, D2 PAM -3, TRPML1 agonist 0.3, TRPML1 blocker -14 and PINK1 modulator 1.1%.
For C/C(=C\C(=S)Nc1ccccc1)Nc1ccccc1 the results were Six1-Eya2 inh 4, D2 ag -7.1, D2 PAM -18, TRPML1 agonist -0.1, TRPML1 blocker 23 and PINK1 modulator -0.5%.
CN1CCCN(C(=O)CNC(=O)Cc2ccccc2)CC1 was read as Six1-Eya2 inh -1, D2 ag -0.7, D2 PAM -11, TRPML1 agonist -0.7, TRPML1 blocker 8 and PINK1 modulator 0.0%.
Screening O=C(OCc1ccccc1)N1CCC2CC1c1cc(N3CCNCC3)ccc12 (configuration not stated) returned Six1-Eya2 inh -21, D2 ag -14, D2 PAM -9, TRPML1 agonist 0.3, TRPML1 blocker -13 and PINK1 modulator 3.9%.
CSc1ncccc1C(=O)OCC(=O)Nc1ccc2c(c1)OCO2 was read as Six1-Eya2 inh 0, D2 ag -0.5, D2 PAM -19, TRPML1 agonist 0.7, TRPML1 blocker -4 and PINK1 modulator -0.8%.
Screening CC(=O)c1ccc(N2CCN(C(=O)Nc3ccc(Cl)cc3)CC2)cc1 returned Six1-Eya2 inh 0, D2 ag -13, D2 PAM -7, TRPML1 agonist -1.5, TRPML1 blocker 12 and PINK1 modulator -0.5%.
Screening CCOc1ccc(C2OC(=O)Cc3cc(OC)c(OC)cc32)cc1 (configuration not stated) returned Six1-Eya2 inh 3, D2 ag 2.0, D2 PAM -3, TRPML1 agonist 0.5, TRPML1 blocker -6 and PINK1 modulator -5.5%[38.3 µM].
For CN(C)C(=O)CSc1nnc(CCCCCNC(=O)OC(C)(C)C)o1 the results were Six1-Eya2 inh 3, D2 ag -2.5, D2 PAM -7, TRPML1 agonist -0.3, TRPML1 blocker -10 and PINK1 modulator -3.9%[38.3 µM].
CCOC(=O)CSc1nc2sccc2c(=O)[nH]1 was read as Six1-Eya2 inh 4, D2 ag -2.9, D2 PAM -9, TRPML1 agonist -0.2, TRPML1 blocker 2 and PINK1 modulator 1.1%.
Screening O=C(O)c1cccc(N/N=C/c2cc(Br)cc(Br)c2O)c1 returned Six1-Eya2 inh -25, D2 ag -0.7, D2 PAM -9, TRPML1 agonist 2.2, TRPML1 blocker 13 and PINK1 modulator 3.9%.
CCC/C=C(\CCC)C(NS(=O)(=O)c1cccc2cccnc12)c1ccc(C(=O)OC)cc1 (configuration not stated) was read as Six1-Eya2 inh -4, D2 ag -1.5, D2 PAM -5, TRPML1 agonist 0.4, TRPML1 blocker -17 and PINK1 modulator 1.4%.
Screening CCC(C)N(C(=O)COC(=O)C1CCN(S(=O)(=O)c2ccc(C)c(C)c2)CC1)C1CCS(=O)(=O)C1 (configuration not stated) returned Six1-Eya2 inh 8, D2 ag -1.8, D2 PAM 8, TRPML1 agonist 1.5, TRPML1 blocker 17 and PINK1 modulator -3.1%.
Screening CCN(C(=O)c1cc(S(=O)(=O)N2CCOCC2)cn1C)c1cccc(C)c1 returned Six1-Eya2 inh 3, D2 ag -4.7, D2 PAM -4, TRPML1 agonist -0.1, TRPML1 blocker -4 and PINK1 modulator -1.1%.
COc1ccc(NC(=O)C2(C)Cc3c(-c4ccc5c(c4)OCO5)ccnc3O2)cc1 (configuration not stated) was read as Six1-Eya2 inh -15, D2 ag -1.7, D2 PAM -7, TRPML1 agonist -0.4 and PINK1 modulator 2.9%.
For COc1cc2c(-c3ccccc3O)nc3c(c(C)nn3-c3ccccc3)c2cc1OC the results were Six1-Eya2 inh -30, D2 ag 3.4, D2 PAM 5, TRPML1 agonist -0.4&1.0, TRPML1 blocker 3&26 and PINK1 modulator 1.6%&3.4%.
Screening Cc1ncsc1CCSc1nc2ccccc2c(=O)n1C returned Six1-Eya2 inh -13, D2 ag 0.0, D2 PAM -3, TRPML1 agonist -0.3, TRPML1 blocker -12 and PINK1 modulator -6.5%[38.3 µM].
Screening O=C(NCCCN1CCCC1=O)c1ccc(CNS(=O)(=O)c2ccc(F)cc2)cc1 returned Six1-Eya2 inh 0, D2 ag -2.1, D2 PAM -18, TRPML1 agonist -0.6, TRPML1 blocker -3 and PINK1 modulator -0.1%.
CCO[C@@H]1OC(C(=O)NC2CC2)=C[C@H](c2ccc3c(c2)OCO3)[C@H]1CCCO was read as Six1-Eya2 inh 6, D2 ag 0.5, D2 PAM -4, TRPML1 agonist -0.3, TRPML1 blocker -25 and PINK1 modulator 2.3%.
`CCOc1ccc(N(CC(=O)NC2CCCCC2)S(=O)(=O)c2ccccc2)cc1` gave Six1-Eya2 inh 0, D2 ag -2.5, D2 PAM -5, TRPML1 agonist 0.8, TRPML1 blocker -2 and PINK1 modulator 11%.
Screening O=C(CCS(=O)(=O)c1ccccc1)Nc1ncc([N+](=O)[O-])s1 returned Six1-Eya2 inh 0, D2 ag -2.6, D2 PAM -11, TRPML1 agonist 0.3, TRPML1 blocker -10 and PINK1 modulator -2.7%.
`COc1ccc([N+](=O)[O-])c(S(=O)(=O)c2ccccc2)n1` gave Six1-Eya2 inh 3, D2 ag -8.2, D2 PAM -13, TRPML1 agonist 1.8, TRPML1 blocker 3 and PINK1 modulator -0.9%.
COc1ccc(OC)c(/C=N/NC(=O)Cc2nc3ccccc3[nH]2)c1 was read as Six1-Eya2 inh -3, D2 ag -2.4, D2 PAM -41, TRPML1 agonist -0.3, TRPML1 blocker 22 and PINK1 modulator 5.6%.
`CN(C)CCN1CCN(C2CN(Cc3cn(Cc4ccccc4)nn3)S(=O)(=O)C2)CC1` (configuration not stated) gave Six1-Eya2 inh 4, TRPML1 agonist -0.4 and PINK1 modulator 0.0%.
`COc1ccccc1/C=C/C=C1\Oc2c(ccc(O)c2CN2CCN(CCO)CC2)C1=O` gave Six1-Eya2 inh -14, D2 ag 1.5, D2 PAM 2, TRPML1 agonist 14, TRPML1 blocker 4 and PINK1 modulator 3.7%.
For Cc1cc(C)c(NC(=O)Cn2cc(S(=O)(=O)Cc3ccccc3F)c3ccccc32)c(C)c1 the results were TRPML1 agonist 1.3, TRPML1 blocker 7 and PINK1 modulator 0.9%.
Screening Cc1c(N2C(=O)CSC2c2ccc(F)cc2)c(=O)n(-c2ccccc2)n1C (configuration not stated) returned Six1-Eya2 inh 15, D2 ag -4.7, D2 PAM -2, TRPML1 agonist -0.2, TRPML1 blocker -4 and PINK1 modulator -0.6%.
O=C(Cn1nnc(-c2ccccc2NC(=O)c2ccco2)n1)Nc1ccccc1 was read as Six1-Eya2 inh 4, D2 ag -1.9, D2 PAM -12, TRPML1 agonist -0.1, TRPML1 blocker -10 and PINK1 modulator 12%.
For O=C(/C=C/[C@H]1O[C@@H](n2ccc(=O)[nH]c2=O)[C@H](O)[C@@H]1O)NCCc1c[nH]c2ccccc12 the results were Six1-Eya2 inh 7, D2 ag -1.9, D2 PAM -4, TRPML1 agonist 0.2, TRPML1 blocker -12 and PINK1 modulator 8.7%.
Screening Cc1cccc(NC(=O)CN2CCN(C(=O)c3cccc(-n4cnnn4)c3)CC2)c1C returned Six1-Eya2 inh -9, D2 ag -2.9, D2 PAM 0, TRPML1 agonist 0.1, TRPML1 blocker -10 and PINK1 modulator -0.2%.
For O=C(Nc1ccc2nc(SCC(=O)N3CCCc4ccccc43)sc2c1)c1ccccc1F the results were TRPML1 agonist 0.8, TRPML1 blocker 14 and PINK1 modulator 1.3%.
For CCOC(=O)C1=NNC(C(=O)OCC)C1C(=O)OCC (configuration not stated) the results were Six1-Eya2 inh 2, D2 ag 1.6, D2 PAM 2, TRPML1 agonist 0.1, TRPML1 blocker 19 and PINK1 modulator -0.5%.
O=C(Nc1cccnc1)c1ccc(N2CCOCC2)c([N+](=O)[O-])c1 was read as Six1-Eya2 inh -7, D2 ag -4.9, D2 PAM -6, TRPML1 agonist 0.3, TRPML1 blocker -13 and PINK1 modulator 2.8%.
Screening CCOc1cc(CN2CCN(Cc3ccc(C)o3)C(CCO)C2)ccc1OC (configuration not stated) returned Six1-Eya2 inh 5, D2 ag -10, D2 PAM -12, TRPML1 agonist 0.2, TRPML1 blocker -1 and PINK1 modulator 0.3%.
`Cc1ccc(CSCC(=O)Nc2ccc3c(c2)OCO3)cc1` gave Six1-Eya2 inh -4, D2 ag 0.8, D2 PAM -2, TRPML1 agonist 1.0, TRPML1 blocker 0 and PINK1 modulator 2.1%[38.3 µM].
`CCOc1ccc2nc(NC(=O)C(CC)Sc3nc(C)cc(=O)[nH]3)sc2c1` (configuration not stated) gave Six1-Eya2 inh -4, D2 ag -0.7, D2 PAM -17, TRPML1 agonist -0.2, TRPML1 blocker -3 and PINK1 modulator -2.0%.
For CCN(CC)CCCNC(=O)CSc1nc(C)cc(C)n1 the results were Six1-Eya2 inh -20, D2 ag inconclusive, D2 PAM -2, TRPML1 agonist -0.5, TRPML1 blocker 5 and PINK1 modulator 0.4%.

Three entries drawn at random from those above, as already listed:
For CCOC(=O)C1=NNC(C(=O)OCC)C1C(=O)OCC (configuration not stated) the results were Six1-Eya2 inh 2, D2 ag 1.6, D2 PAM 2, TRPML1 agonist 0.1, TRPML1 blocker 19 and PINK1 modulator -0.5%.
CSc1ncccc1C(=O)OCC(=O)Nc1ccc2c(c1)OCO2 was read as Six1-Eya2 inh 0, D2 ag -0.5, D2 PAM -19, TRPML1 agonist 0.7, TRPML1 blocker -4 and PINK1 modulator -0.8%.
`COc1ccccc1/C=C/C=C1\Oc2c(ccc(O)c2CN2CCN(CCO)CC2)C1=O` gave Six1-Eya2 inh -14, D2 ag 1.5, D2 PAM 2, TRPML1 agonist 14, TRPML1 blocker 4 and PINK1 modulator 3.7%.
